# Bioassay records: PubChem BioAssay, several laboratories
# Bfl-1 A1 inh: inhibitors of the anti-apoptotic protein A1, read as caspase activation. 0.066% of 330,000 active. AID 2462. MEF A1-2A-BIM cells, Caspase-Glo 3/7 luminescence, 3 h; percent of clofoctol response, vehicle zero. caspase activation, % (concentration not given with the values);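 active = over half of replicate activation scores above 10%, or exactly half above 10 with the replicate mean above 10; inconclusive = replicate mean below 10 yet half the replicates above 10; inactive = over half of replicates below 10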;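 also: wells of about 30 µL received 50 nL stock; many hits fall short of the cut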
# LANA-H2A inh: blocks KSHV LANA binding to histone H2A/H2B. inhibition, % (concentration not given with the values). cell-free LANA-H2A/H2B peptide, fluorescence polarization. AID 2629. Q9QR71. 0.6% of 320,000 active; in the data active = inhibition mostly above about 10%, no sharp cut-off; inactive = mostly below about 6.7%;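 also: stock transfer was 7.5 nL into about 10 µL; 0% = median of vehicle wells and 100% = median of positive control wells; one replicate is shown; the record names a cut of 25% in any replicate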
# Target sequence (Q9QR71 whole entry, looked up): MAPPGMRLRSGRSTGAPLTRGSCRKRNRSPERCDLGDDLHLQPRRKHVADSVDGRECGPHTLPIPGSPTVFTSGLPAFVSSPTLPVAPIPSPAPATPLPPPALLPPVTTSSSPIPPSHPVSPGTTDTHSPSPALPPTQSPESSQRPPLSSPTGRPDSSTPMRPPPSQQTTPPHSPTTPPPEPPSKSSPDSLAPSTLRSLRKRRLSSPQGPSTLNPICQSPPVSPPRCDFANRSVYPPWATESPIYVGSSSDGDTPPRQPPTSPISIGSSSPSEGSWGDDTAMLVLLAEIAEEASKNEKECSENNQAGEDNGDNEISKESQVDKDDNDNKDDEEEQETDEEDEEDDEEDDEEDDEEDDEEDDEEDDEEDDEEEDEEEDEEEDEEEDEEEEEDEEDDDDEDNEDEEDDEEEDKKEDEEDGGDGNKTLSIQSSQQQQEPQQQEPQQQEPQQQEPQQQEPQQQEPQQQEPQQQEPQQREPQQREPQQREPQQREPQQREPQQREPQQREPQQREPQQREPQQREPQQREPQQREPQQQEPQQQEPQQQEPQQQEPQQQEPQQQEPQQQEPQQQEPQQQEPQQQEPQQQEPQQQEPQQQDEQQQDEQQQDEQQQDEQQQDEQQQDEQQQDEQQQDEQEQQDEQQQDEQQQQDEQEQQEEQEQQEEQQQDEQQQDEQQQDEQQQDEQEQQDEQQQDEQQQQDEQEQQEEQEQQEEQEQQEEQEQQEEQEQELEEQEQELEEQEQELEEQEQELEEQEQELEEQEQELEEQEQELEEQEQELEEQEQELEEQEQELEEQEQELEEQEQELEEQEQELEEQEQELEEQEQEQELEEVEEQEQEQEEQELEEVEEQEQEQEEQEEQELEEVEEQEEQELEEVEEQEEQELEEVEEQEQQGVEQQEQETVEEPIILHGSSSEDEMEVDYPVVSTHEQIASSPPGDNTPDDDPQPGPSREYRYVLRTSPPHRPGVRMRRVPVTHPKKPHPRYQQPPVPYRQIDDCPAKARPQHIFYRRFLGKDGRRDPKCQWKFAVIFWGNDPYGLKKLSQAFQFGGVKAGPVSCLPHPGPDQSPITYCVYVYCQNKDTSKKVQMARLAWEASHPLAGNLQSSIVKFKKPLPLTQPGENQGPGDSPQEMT
# RanGTP-Impb inh: inhibitors of RanGTP-importin-beta interaction, primary screen, biochemical, FRET, CFP-Ran, YFP-importin-beta, homogeneous | cell-free CFP-Ran/YFP-importin-beta FRET ratio | inhibition, % (concentration not given with the values) | 1.1% of 300,000 active | AID 2216;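 active = most replicates above 15%; inconclusive = exactly half above 15%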;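 also: 0% = DMSO wells and 100% = Ran loaded with GDP instead of GTP; wells of about 40 µL received 100 nL stock; the first replicate is given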
# UCH37 inh: blocks the human deubiquitinase UCH37; purified proteasome/UCH37, Ub-AMC cleavage fluorescence; inhibition, % (concentration not given with the values); 0.33% of 330,000 active; AID 588478;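 active = mean of two replicates above 20%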;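 also: 0% = compound-free wells with enzyme and 100% = wells lacking proteasome; stock transfer was 100 nL into about 20 µL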
#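 assay system = human UCH37 enzyme supplied as purified proteasome complex | amount = proteasome at 0.15 nM in the dispensed enzyme solution | schedule = 30 min compound-proteasome preincubation then 25 min substrate reaction, room temperature | measured by = fluorescence, ex 355 nm, em 460 nm | benchmarks = no-proteasome wells (full inhibition) and compound-free wells (no inhibition)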
# Calb FLC: C. albicans growth modulation with fluconazole | C. albicans CaCi-2 (fluconazole-resistant clinical isolate) + fluconazole, Alamar Blue growth, 48 h | growth inhibition, % (concentration not given with the values) | 0.57% of 300,000 active;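 active = most replicates above 75%; inconclusive = exactly half above 75%; inactive = most below 75%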;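 also: all wells also contain fluconazole at 8 µg/ml as a sub-toxic cotreatment; 0% = median of DMSO wells and 100% = median of geldanamycin control wells; wells of about 8 µL received 7.5 nL stock; the first replicate is given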
# T cruzi repl: T. cruzi replication inhibition | T. cruzi beta-gal in NIH3T3, luminescence, 90 h | AID 1885 | inhibition, % (concentration not given with the values) | 1.4% of 300,000 active;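 active = mean inhibition across valid replicates above about 55%, limit read from the data; inconclusive = mean below that limit but half or more replicates reach it; inactive = mean below it, under half of replicates reach it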;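 also: signal also drops with host cell toxicity which is not excluded here; 0% = plate median of DMSO wells and 100% = zero luminescence signal; higher percent means less beta-gal luminescence so fewer parasites; stock transfer was 50 nL into about 50 µL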
# B2AR ag: human beta-2 adrenergic receptor agonism by FAP. P07550. Am2.2-beta2AR cells, FAP receptor internalization, flow cytometry; reference of the scale not given here. response, % (concentration not given with the values). 0.43% of 340,000 active. AID 504454;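 active = response above a set limit, near 3 SD of response in nonfluorescent compounds, cut at about 42% in these data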;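 also: stock transfer was 100 nL into about 11 µL; a reference agonist was the positive control; negative values mostly stem from fluorescent compounds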
# Beta cell apopt: beta cell apoptosis inhibition. INS-1E cytokine-induced death, ATP luminescence, 48 h; percent of positive-control rescue, neutral wells zero. protection from apoptosis, % (no concentration beside the values). 0.8% of 300,000 active;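 active = all replicates at 75% or more, or half of them and the mean; inconclusive = half reach 75% but not the mean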;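 also: 0% = cytokine-treated negative control wells and 100% = positive control rescue; higher means more ATP so stronger rescue from cytokine killing; wells of about 40 µL received 100 nL stock; the first replicate is given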
# * marks the source's active call; other numbers are inactive results; i = inactive; ? = inconclusive; · = not tested or not shown.
SMILES,Bfl-1 A1 inh,LANA-H2A inh,RanGTP-Impb inh,UCH37 inh,Calb FLC,T cruzi repl,B2AR ag,Beta cell apopt
Cc1cccc(NC(=O)/C=C/c2ccc([N+](=O)[O-])s2)c1,0.5,-1.6,0.0,4.6,0,59*,-12,99*
Cc1cc(C)n(C(=O)CCNC(=O)c2ccccc2Br)n1,-0.1,3.0,-1.1,0.2,-3,-15,7,2
COc1cc([C@H]2[C@@H]3CCCC[C@]3(O)CCN2CC(=O)Nc2ccc(C)cc2C)ccc1O,0.4,-5.1,-17,1.6,-3,-3,6,0
COc1ccc(C2c3[nH]c4ccccc4c3CCN2Cc2cccn2-c2ncccn2)cc1C (stereo not given),-0.6,3.6,0.5,-1.8,35,79*,18,40
Cc1ccc(-c2nnc(CSc3nnc(COc4cccc5ccccc45)n3-c3ccccc3)o2)cc1,1.2,3.2,0.9,-8.3,15,42,11,-4
CN(C)S(=O)(=O)c1cccc(NC(=O)CSc2ncnc3ccccc23)c1,-0.2,6.3,1.8,7.0,8,1,0,-3
CCN(CC(=O)Nc1ccc(C)c(S(=O)(=O)N(C)C)c1)Cc1ccccc1,1.5,-2.0,1.2,-0.4,-7,1,-4,0
Cc1ccc(-n2ncc3c(=O)n(-c4ccc(C)c(C)c4)c(C)nc32)cc1,0.2,0.0,-4.4,-0.1,18,6,4,-6
COc1ccc(CN2CCC(C(=O)c3cccc(Cl)c3)CC2)cc1,0.3,-4.0,-5.3,3.9,-11,-4,1,-4
Nc1sccc1C(=O)c1ccccc1,0.3,2.9,-0.8,0.3,-9,-2,·,2
CCCCSc1nc(N)c(C#N)c(-c2cccs2)c1C#N,0.3,0.0,-3.0,-8.1,29,27,3,5
CCN(CC(=O)Nc1ccc(NC(C)=O)cc1)C(=O)c1cccc(S(=O)(=O)N2CCc3ccccc3C2)c1,0.5,-0.7,·,4.4,-8,2,-9,3
O=C(CCn1c(=O)sc2ccccc21)Nc1cccnc1,1.1,5.2,-0.1,3.3,-7,-16,-3,0
COCCNC(=O)CN1C(=O)NC2(CCCCCC2)C1=O,0.1,-4.6,5.6,1.1,8,-11,-4,-2
Cc1ccc(-n2c(SCC(=O)NCC3CCCO3)nc3ccccc3c2=O)cc1C (stereo not given),-1.1,0.3,1.3,2.7,9,-2,3,-2
CCCCn1c(O)c(C=NCCCN(C)C)c(=O)[nH]c1=O,0.5,-4.7,3.9,7.4,-4,8,5,-7
Cc1nc(SCC(=O)O)c2oc3ccccc3c2n1,0.1,2.8,1.3,2.7,-7,-2,-2,0
CC(=O)Nc1ccc(-n2nnnc2SCC(=O)NCc2cccs2)cc1,0.6,4.7,3.4,3.9,-5,-3,-4,-1
CCCn1c(C(C)NC(=O)c2ccccc2)nc2ccccc21 (stereo not given),·,·,-0.2,6.7,-2,-4,0,·
O=C(COc1cccc2cccnc12)NNC(=S)Nc1ccccc1,-0.3,1.5,0.8,0.6,43,-33,·,2
COc1ccc(/C=C2/NC(=O)N(CC(=O)Nc3cccc(C)c3)C2=O)cc1O,0.3,0.9,-0.2,-16,-7,18,5,0
CCOc1ccc(Cn2nnc(-c3ccc(S(C)(=O)=O)cc3)n2)cc1OCC,-0.2,1.8,·,1.3,·,·,-13,1
CC(C)(C)c1csc(NC(=O)Cn2c(=O)oc3ccccc32)n1,0.7,6.8,·,1.7,·,·,3,3
CCCN1CCN(c2ncnc3c2nnn3Cc2ccccc2)CC1,-0.9,-3.1,0.4,2.3,-3,-7,-4,10
Cc1cc(NC(=O)C2C3C(=O)N(Cc4ccc(Cl)cc4)C(C(=O)NC(C)(C)C)C34C=CC2(C)O4)no1 (stereo not given),-0.8,-2.1,-3.2,0.6,-3,-17,6,2
COc1ccc(S(=O)(=O)Nc2ccc3c(c2)OCO3)cc1Cl,0.7,-1.1,-5.9,-2.0,0,-2,6,-1
O=C1N/C(=C/c2cccn2-c2ccccc2)C(=O)N1Cc1ccccc1F,0.3,0.8,-4.7,1.3,3,28,8,-3
O=C(COc1ccc([N+](=O)[O-])cc1)Nc1ccc(N2CCCC2)cc1,0.2,-2.7,?,·,3,6,-4,-3
O/N=C1\CC(O)Cc2nonc21 (stereo not given),0.2,2.6,-1.0,·,-6,-5,-3,-1
CN1CCN(S(=O)(=O)c2cccc(C(=O)NC3(C)CCS(=O)(=O)C3)c2)CC1 (stereo not given),0.5,-11,·,3.8,·,·,-9,2
Cc1ccc(-c2nc3cccnc3s2)cc1NC(=O)c1ccco1,-1.5,-5.0,1.9,-18,6,-19,-20,7
CSc1ccc(N/N=C(/C#N)S(=O)(=O)C(C)(C)C)cc1,-0.6,6.1,-4.0,·,34,-1,4,19
CN(Cc1ccccc1)S(=O)(=O)c1ccc(C(=O)Nc2nnc(C3CC3)o2)cc1,0.2,4.0,3.4,0.5,85*,37,5,5
O=C(c1ccccc1)N1CCN(C(=O)c2cc3ccccc3oc2=O)CC1,0.3,-4.7,1.3,4.3,0,5,-2,0
CC1CC(C)CN(C(=O)c2ccc3c(c2)OCCO3)C1 (stereo not given),0.7,-1.2,·,3.6,·,·,-8,-3
Cc1cc(C)nc(NC(=O)C(c2ccccc2)c2ccccc2)n1,-0.2,-1.3,-1.7,-0.2,0,3,-2,-2
Cc1cc(OCC(=O)N2CCC(O)(c3ccc(Cl)cc3)CC2)c2c(C)cc(=O)oc2c1,-0.5,-6.0,-8.1,-13,·,11,7,12
O=C(Cn1nc(-c2ccccc2)ccc1=O)N1CCCCC1,1.7,-0.2,2.5,-1.0,-1,-20,7,-1
CCCOc1ccc(C(=O)Nc2ccc(N3CCN(C(=O)c4ccco4)CC3)cc2)cc1,0.3,2.0,-3.1,0.1,-2,27,7,9
Cc1cccc(C(C(=O)NCc2ccc(F)cc2)N(C(=O)c2csnn2)C2CC2)c1 (stereo not given),-0.5,-7.4,-1.8,0.6,2,-4,5,10

# Whole records from above:
# Cc1ccc(-c2nc3cccnc3s2)cc1NC(=O)c1ccco1 is listed as Bfl-1 A1 inh = -1.5; LANA-H2A inh = -5.0; RanGTP-Impb inh = 1.9; UCH37 inh = -18; Calb FLC = 6; T cruzi repl = -19; B2AR ag = -20; Beta cell apopt = 7
# COc1ccc(S(=O)(=O)Nc2ccc3c(c2)OCO3)cc1Cl is listed as Bfl-1 A1 inh = 0.7; LANA-H2A inh = -1.1; RanGTP-Impb inh = -5.9; UCH37 inh = -2.0; Calb FLC = 0; T cruzi repl = -2; B2AR ag = 6; Beta cell apopt = -1
# Cc1cccc(NC(=O)/C=C/c2ccc([N+](=O)[O-])s2)c1 is listed as Bfl-1 A1 inh = 0.5; LANA-H2A inh = -1.6; RanGTP-Impb inh = 0.0; UCH37 inh = 4.6; Calb FLC = 0; T cruzi repl = 59*; B2AR ag = -12; Beta cell apopt = 99*

# (list continues)
SMILES,Bfl-1 A1 inh,LANA-H2A inh,RanGTP-Impb inh,UCH37 inh,Calb FLC,T cruzi repl,B2AR ag,Beta cell apopt
COc1ccc(Cl)cc1NC(=O)COC(=O)C1CC(=O)N(Cc2ccccc2)C1 (stereo not given),-0.2,-6.8,·,1.0,·,·,-4,-7
Cc1cccc(C)c1OCC(O)CNS(=O)(=O)c1ccccc1C(=O)N1CCCCC1 (stereo not given),-0.6,4.2,2.5,1.3,-10,9,3,4
Cc1ccc2nc(-c3ccc(N)cc3)sc2c1,-7.5,-4.3,-2.5,i,3,5,19,3
COc1cc(OC)cc(C(=O)Nc2ccc(S(=O)(=O)Nc3cc(C)on3)cc2)c1,-1.5,0.9,-2.9,0.2,-4,-13,1,-5
O=C(Cn1cnc2ccccc2c1=O)Nc1ccc(S(=O)(=O)N2CCCC2)cc1,1.1,3.1,0.7,-0.7,-7,10,-16,-1
CCOc1ccccc1CN1CCN(Cc2cn(C)nc2-c2ccccc2)CC1CCO (stereo not given),0.1,2.0,1.1,·,4,14,-2,-1
CCOc1cccc(NC(=O)c2cnccc2C(F)(F)F)c1,1.5,0.9,-1.5,2.5,-4,-15,-2,-2
Cc1c(OC(C)C(=O)N[C@H](C(=O)O)c2ccccc2)ccc2c3c(c(=O)oc12)CCCC3 (stereo not given in full),-0.1,3.9,?,-63,9,2,-10,·
O=C(Nc1ccccc1C(=O)Nc1ccccc1)c1cccs1,0.3,-3.7,-2.0,0.8,-3,-2,-5,1
CC(=O)Nc1ccc(NC(=O)CN(c2cccc([N+](=O)[O-])c2)S(C)(=O)=O)cc1,0.2,1.9,-3.9,1.3,-12,-2,0,108*
Cc1ccc(N(CC(=O)NC2CCCC2)C(=O)Cn2nnc(-c3ccccc3F)n2)cc1,0.4,-4.6,-1.1,2.0,-4,12,-8,0
C[C@H](CO)N1C[C@H](C)[C@@H](CN(C)Cc2ccc3c(c2)OCO3)Oc2c(NC(=O)C3CCCCC3)cccc2C1=O,-0.4,2.6,·,-1.6,·,·,9,5
CC(C)(C)n1nnnc1C(c1cccs1)N(Cc1ccccc1)Cc1ccco1 (stereo not given),-0.5,0.0,2.2,0.5,2,51,6,0
COc1ccccc1CNc1ccc(N2CCOCC2)c(C(=O)O)c1,2.3,-1.2,0.0,-9.6,-8,-8,-1,2
O=C1NC(=O)/C(=C\c2ccc(OCc3cnc(Cl)s3)cc2)S1,0.4,5.5,8.2,-4.2,3,18,6,1
CCOC(=O)C1CCCN(C(=O)c2cc(-c3ccc(C)cc3)on2)C1 (stereo not given),-0.6,-4.4,5.1,3.4,-19,-1,5,1
O=C(NNc1c(Cl)cncc1Cl)c1sccc1Cl,-0.2,1.0,-1.6,-1.0,6,·,-3,1
Cc1cccc(CN2CCc3c(OCC(=O)N4CCCc5ccccc54)cccc3C2=O)c1,1.4,-11,22*,-2.0,7,8,5,9
O=C(c1ccccc1)c1ccc2nc(N3CCN(C(=O)c4ccco4)CC3)c3nncn3c2c1,1.1,-0.2,-1.7,3.0,-8,23,-4,6
Cc1ccc(Nc2nc(-c3sc(N)nc3C)cs2)cc1,-9.3,1.3,5.6,2.9,22,-7,15,1

# Reformatted tab-delimited: entries from further up
smiles	Bfl-1 A1 inh	LANA-H2A inh	RanGTP-Impb inh	UCH37 inh	Calb FLC	T cruzi repl	B2AR ag	Beta cell apopt
CCOC(=O)C1CCCN(C(=O)c2cc(-c3ccc(C)cc3)on2)C1 (stereo not given)	-0.6	-4.4	5.1	3.4	-19	-1	5	1
O=C(NNc1c(Cl)cncc1Cl)c1sccc1Cl	-0.2	1.0	-1.6	-1.0	6	·	-3	1

# (continued)
SMILES,Bfl-1 A1 inh,LANA-H2A inh,RanGTP-Impb inh,UCH37 inh,Calb FLC,T cruzi repl,B2AR ag,Beta cell apopt
Nn1cc(-c2ccccc2)nc1SCC(=O)Nc1cccc(S(N)(=O)=O)c1,-0.7,3.8,1.9,1.4,1,-8,2,-8
CN(C)/C=C1\C(=O)N(c2ccc(Cl)c(Cl)c2)CS1(=O)=O,-1.1,0.4,?,0.7,-31,-20,0,-5
O=C1NC(c2ccccc2)CCC1(Cl)Cl (stereo not given),1.6,-7.5,2.8,-0.6,6,-3,6,-6
CN(C)/C=C1/Sc2ccccc2C1=O,0.4,-0.8,19*,1.6,2,-12,5,2
COc1ccc(Br)cc1C(=O)Nc1cccc2ncccc12,0.4,4.7,2.4,1.6,?,-9,-9,-1

# Compounds as they come; about 4.3% have a hit in one of these screens.
